Assay outcomes deposited in PubChem BioAssay by ICCB-Longwood Screening Facility, Harvard Medical School.
Bm FixLJ act – activators of Burkholderia fixLJ two-component system, primary screen, B. multivorans, GFP reporter. B. multivorans fixK-promoter GFP reporter, 18 h; active compounds read high. z-score (no concentration beside the values). actives 0.3% (n = 29,000). AID 1918990, 2023;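 active means replicate mean overnight rise in green fluorescent reporter signal, 3 or more SD over negative controls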;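 further: score is relative to vehicle wells of the plate; 300 nL library stock went into each well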
* marks the source's active call; other numbers are inactive results; & = joins results of further samples. The list is partial, so the mix of outcomes need not match the whole.

Screening Cc1ccc(S(=O)(=O)Nc2cc3c(cc2NCc2ccccc2)n(C)c(=O)n3C)cc1 returned Bm FixLJ act 0.14.
COCC1C(NS(=O)(=O)c2ccc(OC)c(F)c2)C2CCOC21 (stereo not drawn) was read as Bm FixLJ act 0.
COc1cc(C(=O)N2CC(=O)Nc3ccc(C)cc3C2c2ccc(F)cc2)cc(OC)c1OC (stereo not drawn) was read as Bm FixLJ act -1.3.
Screening COc1ccccc1CNS(=O)(=O)c1cc(Br)cc2c1N(C(C)=O)C(C)C2 (stereo not drawn) returned Bm FixLJ act -0.84.
`Cc1ccccc1-c1ccnc2c(-c3ccc(F)cc3)c(C)nn12` gave Bm FixLJ act 0.68.
`COc1cccc(OCC(=O)N2CCCN(C(=O)C3CCOC3)CC2)c1` (stereo not drawn) gave Bm FixLJ act -1.7.
For COc1ccccc1OCc1nc(-c2cccc(C)c2)no1 the results were Bm FixLJ act -1.3.
Screening Cc1cc(NC(=O)c2cc(-c3ccc(Cl)c(Cl)c3)on2)n(-c2ccccc2)n1 returned Bm FixLJ act -1.6.
For COc1ccc(OC)c(CCNC(=O)CN2C(=O)COc3ccc(S(=O)(=O)N4CCC(C)CC4)cc32)c1 the results were Bm FixLJ act -1.3.
`Cc1ccsc1CN(C(=O)c1oc2ccc(F)cc2c1C)C1CCS(=O)(=O)C1` (stereo not drawn) gave Bm FixLJ act -1.1.
Screening Cc1ccc(CNC(=O)c2ccc3c(c2)N(Cc2ccccc2F)C(=O)c2ccccc2S3(=O)=O)cc1 returned Bm FixLJ act 0.9.
`CCOC(=O)c1cnc2c(C)c(Cl)ccc2c1Nc1ccc(C)cc1C` gave Bm FixLJ act 0.29.
Screening CCOc1ccccc1NC(=O)c1c(NC(=O)c2cccc(C)c2)sc2c1CCCC2 returned Bm FixLJ act -0.41.
Screening CS(=O)(=O)c1ncc(Cl)c(C(=O)N(Cc2ccc(Cl)cc2)Cc2ccco2)n1 returned Bm FixLJ act -1.8.
For CCCc1nc(N2CCCC(C(=O)N(CC)CC)C2)c2cnn(C)c2n1 (stereo not drawn) the results were Bm FixLJ act 0.37.
For O=C(CCC(=O)N1CCSc2ccccc21)NCc1ccccc1Cl the results were Bm FixLJ act -0.2.
`CCOC(=O)N1CCc2c(sc3c2c(=O)n(CCc2ccccc2)c(=O)n3CC(=O)Nc2cccc(C)c2)C1` gave Bm FixLJ act 0.12.
For Cc1ccn2c(=O)c(C(=O)NCCc3ccccc3)c(O)nc2c1 the results were Bm FixLJ act 1.6.
COc1cc(-c2ccc(=O)[nH]n2)ccc1OC(F)F was read as Bm FixLJ act -1.6.
Screening CN(Cc1ccc2nsnc2c1)C(=O)c1ccc2n[nH]nc2c1 returned Bm FixLJ act 0.04.
For Cc1cc(C)c2oc(-c3ccc(NC(=O)c4cc(Br)ccc4Cl)cc3)nc2c1 the results were Bm FixLJ act -0.11.
Screening CCCS(=O)(=O)c1nc(S(=O)(=O)c2ccc(C)cc2)c(NC)s1 returned Bm FixLJ act 0.18.
COCc1nc(C2CC(N)C2)cc(N(C)Cc2cn[nH]c2C)n1 (stereo not drawn) was read as Bm FixLJ act -1.2.
For Oc1c(Cl)cc(Cl)cc1Sc1cc(Cl)cc(Cl)c1O the results were Bm FixLJ act -6.9.
Screening Cc1c(C(=O)N(Cc2ccc(N(C)C)cc2)CC2CCCO2)oc2ccc(Br)cc12 (stereo not drawn) returned Bm FixLJ act 0.27.
Screening CC(=O)Nc1ccc(NC(=O)CSc2nc3ccccc3nc2N2CCCCC2)cc1 returned Bm FixLJ act -3.
Screening COc1ccc(NC(=O)CC(=O)N2CC(N(C)C)CC2CO)cc1 (stereo not drawn) returned Bm FixLJ act -5.1.
Screening CCOc1ccc(NC(=O)c2cc3nc(-c4ccc(OC)cc4)cc(C(F)(F)F)n3n2)cc1 returned Bm FixLJ act 1.4.
For CC(=O)N1CCc2cc(S(=O)(=O)NC(Cc3ccccc3)C(=O)Nc3cc(C)ccc3C)ccc21 (stereo not drawn) the results were Bm FixLJ act -1.1.
Screening CCN(CC)C(=O)C1=C(C)Nc2nc3ccccc3n2C1c1cccc(OC)c1 (stereo not drawn) returned Bm FixLJ act -1.2.

Structural class, those above with a thiophene ring, fused or not
`Cc1ccsc1CN(C(=O)c1oc2ccc(F)cc2c1C)C1CCS(=O)(=O)C1` (stereo not drawn) gave Bm FixLJ act -1.1.
Screening CCOc1ccccc1NC(=O)c1c(NC(=O)c2cccc(C)c2)sc2c1CCCC2 returned Bm FixLJ act -0.41.
`CCOC(=O)N1CCc2c(sc3c2c(=O)n(CCc2ccccc2)c(=O)n3CC(=O)Nc2cccc(C)c2)C1` gave Bm FixLJ act 0.12.

Later entries.
Screening Fc1ccc(Nc2ncnc3onc(-c4cccc(Cl)c4)c23)c(F)c1 returned Bm FixLJ act -0.99.
For CCOC(=O)c1c(NC(=O)c2cc(-c3ccc(Cl)cc3)on2)sc(C)c1C the results were Bm FixLJ act -0.47.
For Cc1ccc(C(=O)Nc2cc3cc(Cl)ccc3oc2=O)cc1 the results were Bm FixLJ act -0.34.
For CSc1ccc(CCNC(=O)Cn2ncn3c(cc4ccccc43)c2=O)cc1 the results were Bm FixLJ act -2.2.
`CCN(CC)CC(=O)Nc1c(C)cccc1C` gave Bm FixLJ act -0.96&0.48.
`COc1ccc(CCNS(=O)(=O)c2ccc3c(c2)c(=O)n(C)c(=O)n3C)cc1OC` gave Bm FixLJ act -0.71.
`CCc1cc2c(cc3c(=O)n(CC(=O)NC4CCC(C)CC4)nc(CC)n32)s1` (stereo not drawn) gave Bm FixLJ act 0.11.
`CC(C)OCCCNC(=O)C(=O)Nc1ccc2nc3n(c(=O)c2c1)CCCCC3` gave Bm FixLJ act -1.6.
`CCc1cc2c(cc3c(=O)n(CC(=O)NC4CCCCC4)nc(CC)n32)s1` gave Bm FixLJ act -0.97.
Cn1c(=O)c(=O)n(C)c2cc(S(=O)(=O)Nc3ccc(Cl)c(C(F)(F)F)c3)ccc21 was read as Bm FixLJ act -0.26.
CCCCCCN1CC2(CCN(C(=O)c3ccccn3)CC2)OC1=O was read as Bm FixLJ act -1.8.
Screening COc1cc(OC)c(NC2=C(c3ccc(C(F)(F)F)cc3)C(=O)c3ccccc32)cc1Cl returned Bm FixLJ act -0.77.
Screening CCN1CCC[C@H]1CNC(=O)c1c(OC)ccc(Br)c1OC returned Bm FixLJ act -0.15.
For NC(=O)C1CC=CCC1NC(=O)c1ccc2ncsc2c1 (stereo not drawn) the results were Bm FixLJ act -2.8.
Screening COc1c(C)cccc1C(=O)NC(c1cnc2ccccc2c1)C1CC(O)C1 (stereo not drawn) returned Bm FixLJ act -3.5.
Screening CCCCOc1ccc(CNC(=O)Cn2ncn3c(cc4cc(F)ccc43)c2=O)cc1 returned Bm FixLJ act -0.7.
`Cc1ccc(CNC(=O)CSc2c3c(nc4cc(Cl)ccc24)CCCC3)cc1` gave Bm FixLJ act -0.55.
Screening Cc1ccc(C)c(NC(=O)CN2C(=O)c3cccc4cccc2c34)c1 returned Bm FixLJ act -1.4.
For O=c1c2ccccc2n(Cc2ccccc2Cl)c(=O)n1CCc1ccccc1 the results were Bm FixLJ act -1.1.
`CC1(C)O[C@H]2[C@@H](O1)[C@@H](C(=O)Nc1ccc(F)c(F)c1)O[C@@H]1OC(C)(C)O[C@@H]12` gave Bm FixLJ act -0.51.
For Cn1cc(C(NC(=O)c2ccc(F)cc2)C2CC(O)C2)cn1 (stereo not drawn) the results were Bm FixLJ act 0.19.
COc1cccc2c1cc1c(=O)n(CC(=O)N3CCN(c4ccccc4F)CC3)nc(C)n12 was read as Bm FixLJ act -0.69.
For COc1ccc(Cl)cc1N=C1NC(=O)CC(C(=O)Nc2ccccc2C(F)(F)F)S1 (stereo not drawn) the results were Bm FixLJ act -2.6.
For CC(C)Cn1c(=O)n(C)c(=O)c2[nH]cnc21 the results were Bm FixLJ act -1.1.
`O=C(NC1CCCCC1)c1ccc2c(c1)N(Cc1ccc(Cl)cc1)C(=O)c1ccccc1S2(=O)=O` gave Bm FixLJ act 0.32.
Screening COc1ccc(S(=O)(=O)N(CC(=O)Nc2cccnc2)c2ccc(Cl)cc2)cc1 returned Bm FixLJ act -1.1.
`Cc1nn(-c2ccccc2)c(-n2cccc2)c1C(=O)NCCc1ccc(Cl)cc1` gave Bm FixLJ act 2.9.
CCNC(=O)c1ccc(NC(=O)C2CCN(C(=O)c3ccccn3)CC2)cc1Cl was read as Bm FixLJ act -0.57.
O=C1CC(c2nc3ccccc3n2CCCCOc2ccccc2)CN1c1ccccc1Cl (stereo not drawn) was read as Bm FixLJ act -0.28.
For N#Cc1nc(COc2ccccc2Cl)oc1NCCc1ccccc1 the results were Bm FixLJ act -0.58.

An excerpt from above in order of length of the SMILES, smallest number first.
For CC(C)Cn1c(=O)n(C)c(=O)c2[nH]cnc21 the results were Bm FixLJ act -1.1.
For NC(=O)C1CC=CCC1NC(=O)c1ccc2ncsc2c1 (stereo not drawn) the results were Bm FixLJ act -2.8.
For O=C(CCC(=O)N1CCSc2ccccc21)NCc1ccccc1Cl the results were Bm FixLJ act -0.2.
Screening CN(Cc1ccc2nsnc2c1)C(=O)c1ccc2n[nH]nc2c1 returned Bm FixLJ act 0.04.
Screening CS(=O)(=O)c1ncc(Cl)c(C(=O)N(Cc2ccc(Cl)cc2)Cc2ccco2)n1 returned Bm FixLJ act -1.8.

Going on with the list.
CCN1CC2(CCN(C(=O)C3CC(=O)Nc4ccc(OC)cc43)CC2)CC1=O (stereo not drawn) was read as Bm FixLJ act -2.6.
`COc1ccc(OCCCCn2c(C3CC(=O)N(c4cccc(Cl)c4)C3)nc3ccccc32)cc1` (stereo not drawn) gave Bm FixLJ act -0.68.
O=C(O)c1cc2c(s1)CCOC21CCN(C(=O)c2[nH]ncc2Cl)CC1 was read as Bm FixLJ act 0.91.
CC(Oc1ccccc1CN1CCC(Oc2ncccn2)CC1)C(=O)O (stereo not drawn) was read as Bm FixLJ act -0.91.
CCOc1cc(CN2CC(C(=O)O)C3(CCOCC3)C2)c(Cl)cc1OC (stereo not drawn) was read as Bm FixLJ act -3.1.
For CCOC(=O)CSc1nc2ccccc2n2c(C)nnc12 the results were Bm FixLJ act -0.5.
`CCc1cccc(NC(=O)Cn2c(=O)n(CCCCCC(=O)NCc3ccc(F)cc3)c(=O)c3sccc32)c1` gave Bm FixLJ act -0.4.
`COc1ccccc1-c1ncc(CNC(=O)N2CCC(F)(F)CC2)s1` gave Bm FixLJ act -1.4.
`CN(C)c1cc2c(cc1NC(=O)c1ccc(F)cc1)n(C)c(=O)n2C` gave Bm FixLJ act -1.4.
Screening O=C1COc2ccc(-c3cc(-c4ccc(F)cc4)c4c(n3)-c3cc(Cl)ccc3OC4)cc2N1 returned Bm FixLJ act 0.2.
CCN(C)C(=O)Oc1cccc([C@H](C)N(C)C)c1 was read as Bm FixLJ act -1.1.
CC1CCCCN1c1c(S(=O)(=O)c2ccc(Cl)cc2)cnc2ccccc12 (stereo not drawn) was read as Bm FixLJ act 1.2.
Screening Cc1[nH]cnc1C(=O)N1CCCN(C(=O)c2ccc3ccccc3n2)CC1 returned Bm FixLJ act 0.39.
For Cc1ccc(OC2(C(=O)NCCNc3ncccc3C)CCNCC2)cc1 the results were Bm FixLJ act 0.28.
O=C(c1cc(=O)[nH]o1)N1CCC(C(O)Cc2ccccc2)CC1 (stereo not drawn) was read as Bm FixLJ act -2.3.
Screening COc1ccc(-c2cc(C(=O)N3CCc4nnc(C)n4CC3)[nH]n2)cc1 returned Bm FixLJ act -1.7.
O=c1oc2ccc3ccccc3c2cc1-c1nnc(Nc2cccc(F)c2)s1 was read as Bm FixLJ act 1.3.
Cc1ccc(CSc2nnc(-n3c(=O)c(C#N)cc4c(=O)n5cc(C)ccc5nc43)s2)cc1 was read as Bm FixLJ act -1.7.
CCn1c(CCNC(=O)N(C)Cc2nc(C)cs2)nc2ccccc21 was read as Bm FixLJ act 0.07.
`CCOc1cc(C2C(C(=O)OC)=C(C)NC3=C2C(=O)c2ccccc23)cc(Br)c1OCC` (stereo not drawn) gave Bm FixLJ act 0.6.
Screening Cc1cccc(C)c1OCC(=O)N(Cc1ccccc1F)C1CCS(=O)(=O)C1 (stereo not drawn) returned Bm FixLJ act -1.3.
For CCc1ccc(-n2c(=O)c3sc4ccccc4c3n(Cc3cccc(F)c3)c2=O)cc1 the results were Bm FixLJ act 1.2.
`O=C(COc1ccc(Cl)cc1)N(Cc1ccco1)Cc1ccco1` gave Bm FixLJ act -0.39.
CC(=O)N1CCc2cc(S(=O)(=O)NC(Cc3ccccc3)C(=O)NCc3ccc(C)cc3)ccc21 (stereo not drawn) was read as Bm FixLJ act -1.5.
For CCN(CC)C(=O)CC1C(=O)NCCN1Cc1cccc(C(F)(F)F)c1 (stereo not drawn) the results were Bm FixLJ act -3.
Screening C=C1CC[C@H](O)C/C1=C/C=C1\CCC[C@]2(C)[C@@H]([C@H](C)CCCC(C)(C)O)CC[C@@H]12 returned Bm FixLJ act -1.2.
Cc1ccccc1NC(=O)c1ccccc1NC(=O)c1ccccc1Cl was read as Bm FixLJ act -1.7.
CCCCCn1c(CN2CCN(c3ccc(OC)cc3)CC2)nc2c1c(=O)[nH]c(=O)n2C was read as Bm FixLJ act -0.26.
For CCC12CN3CC(C)(CN(C1)C3c1c[nH]c3ccccc13)C2=O (stereo not drawn) the results were Bm FixLJ act -0.76.
Cc1cc(C)cc(NC(=O)C(NS(=O)(=O)c2cccc3nsnc23)c2ccccc2)c1 (stereo not drawn) was read as Bm FixLJ act -0.85.
COc1ccc(NC(=O)CSc2nc3c(oc4ccccc43)c(=O)n2Cc2ccco2)cc1Cl was read as Bm FixLJ act -0.13.
For O=C(c1ccccn1)C1CCCN(C(=O)c2csc(-c3ccccc3)n2)C1 (stereo not drawn) the results were Bm FixLJ act -0.69.
For COc1cc(-c2nc3ccc(C)cn3c2Nc2ccc(Cl)cc2)ccc1O the results were Bm FixLJ act -0.33.
